From PubChem BioAssay
DT40 TDP1 CPT: growth inhibition of DT40 Tdp1-/-;hTDP1 cells with camptothecin (screen for TDP1 inhibitors) | 420,000 compounds, 12% hits | AID 686979 | chicken DT40 Tdp1-/-;hTDP1 cells + 20 nM CPT, ATP luminescence, 48 h | Potency, µM (highest dose often 46.2 µM), for inactives: top-dose activity change, negative = growth inhibition, hits mostly inhibitors; further: nearly all actives have a fitted effect of over 55% in size
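Cell growth measured by CellTiter-Glo luminescence after a minimum 48 h, 37 C compound exposure with 20 nM CPT in Tdp1-knockout DT40 cells stably expressing hTDP1, seeded 400/well; qHTS titration format.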
FEN1 inh: human FEN1 inhibition. 390,000 compounds, 0.35% hits. Potency, µM (highest dose often 114 µM), inactives show top-dose activity change, negative = inhibition, hits mostly inhibitors. Recombinant FEN1 flap cleavage, fluorescence, 15 min. AID 588795; further: nearly all actives have a fitted effect of over 65% in size
Target sequence (P39748 whole entry, looked up): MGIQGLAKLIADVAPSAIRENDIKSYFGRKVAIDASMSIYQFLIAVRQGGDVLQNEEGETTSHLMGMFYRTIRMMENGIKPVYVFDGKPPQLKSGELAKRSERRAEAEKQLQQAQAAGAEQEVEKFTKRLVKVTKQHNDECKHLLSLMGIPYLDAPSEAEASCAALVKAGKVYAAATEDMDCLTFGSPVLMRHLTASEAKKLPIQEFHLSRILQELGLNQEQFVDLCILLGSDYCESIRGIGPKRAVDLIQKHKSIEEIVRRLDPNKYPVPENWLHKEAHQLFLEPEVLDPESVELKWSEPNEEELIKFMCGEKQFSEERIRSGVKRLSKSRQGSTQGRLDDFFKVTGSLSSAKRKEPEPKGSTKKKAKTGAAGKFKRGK
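Read-out was taken twice, immediately and after 15 min, following addition of 50 nM substrate to 10 nM FEN1 that had sat with test compound for 15 min at room temperature. Curves came from a four-parameter Hill model.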
Starred values were filed as active, the others as inactive; ? = inconclusive. The call rests on the fitted dose curve; in most records, active means well fitted curve in the direction sought with a large enough effect; inconclusive means small, poorly fitted or top-dose-only effect, or another doubt; inactive means no such curve, though single readings can be large; an effect the other way counts as inactive or inconclusive. On the % scale 0 is the no-effect control and ±100 the full control effect; potency means the concentration at half of the fitted maximal effect.

SMILES	DT40 TDP1 CPT	FEN1 inh
Cc1cc(Cl)ccc1NC(=O)CN1C(=O)NC2(CCCc3ccccc32)C1=O (stereo not given)	?	8%
FC(F)(F)c1cccc(OCc2noc(-c3ccsc3)n2)c1	1%	-3%
CCOC(=O)c1cccc(NC(=O)/C=C/c2ccc([N+](=O)[O-])cc2)c1	15µM*	3%
O=C1COc2ccc(C(=O)COC(=O)c3ccccc3[N+](=O)[O-])cc2N1	21%	7%
CCCNC(=O)c1ccc(CN2CCc3ccccc3C2)cc1	-10%	0%
CCCC1/C(=N/O)CC(c2ccccc2)NC1c1ccccc1 (stereo not given)	?	3%
Cc1ccc(NC(=S)NCc2ccc3c(c2)OCO3)c(C)c1	?	-3%
CC(C)(C)OC(=O)N1CCC(C(=O)N[C@H](Cc2ccccc2)C(=O)O)CC1	0%	-1%
c1ccc(Cn2ccnc2-c2ccco2)cc1	1%	12%
O=S(=O)(NC1CCCCC1)c1ccc(Br)cc1	-23%	1%
COc1ccc(C(=O)OC2CCN(C)CC2)cc1	9%	8%
Cc1ccc(SCC(=O)NCCc2ccc(F)cc2)cc1	4%	3%
O=CN1CCN(C2CC(=O)N(c3ccc(Br)cc3)C2=O)CC1 (stereo not given)	-10%	18%
CCOc1cccc(C2/C(=C(\O)c3ccc4c(c3)OCCO4)C(=O)C(=O)N2Cc2ccncc2)c1 (stereo not given)	-16%	14%
CC[C@@H](C(=O)n1nc(C)cc1C)[C@H](NS(=O)(=O)c1ccc(C)cc1)c1ccccc1	?	-20%
CCOCCn1c(CN2CCc3ccccc3C2)nc2c1c(=O)n(C)c(=O)n2C	23µM*	-9%
O=C(Nc1ccc(-c2nc3cccnc3s2)cc1)c1ccc(Br)o1	12µM*	0%
CC1CN(C(=O)Nc2ccc3c(c2)OCCO3)CC(C)O1 (stereo not given)	5%	6%
COc1ccccc1OCc1ccc(C(=O)N2CCCCC2)o1	2%	-4%
Cc1nn(C)cc1C1C(C#N)=C(N)N(c2cccnc2)C2=C1C(=O)CCC2 (stereo not given)	-2%	-2%
CNc1ccc(C(=O)N2CCN(S(=O)(=O)c3ccc4c(c3)OCCCO4)CC2)cc1[N+](=O)[O-]	?	10%
COc1ccc(N=C2SC(CC(=O)Nc3ccccc3)C(=O)N2Cc2ccco2)cc1 (stereo not given)	?	-11%
CCOc1ccc(-c2csc(NC(=O)CSCC(=O)O)n2)c2ccccc12	0%	-11%
CC(=O)c1ccc(NC(=O)c2cccs2)cc1	?	-3%
CN1CCCN(S(=O)(=O)c2ccc(Cl)c(Cl)c2)CC1	-20%	6%

Later entries.
SMILES	DT40 TDP1 CPT	FEN1 inh
COc1ccc(N2CCN(C(=O)NC3CCCCC3)CC2)cc1	-24%	-1%
COc1cc(S(=O)(=O)n2nnc3ccccc32)c(OC)cc1Cl	-14%	-2%
O=C(CN1CCN(c2ccccn2)CC1)Nc1ccccc1	-9%	4%
CC(C)(C)c1[nH]nc2c1C(Cc1ccccc1)C(C#N)=C(N)O2 (stereo not given)	?	-3%
Cc1ccc(S(=O)(=O)NC2=NCN(CCN3CCOCC3)CN2)cc1	-5%	4%
CCCC1C2CN(C(C)C)CC=C2C(C#N)=C(N)C1(C#N)C#N (stereo not given)	?	0%
Cc1ccc(C(=O)OCC(=O)Nc2ncc(Cl)cc2Cl)cc1NC(=O)c1ccco1	-5%	2%
COc1ccc(C(=O)C2=NN(C(C)=O)CC2c2ccco2)cc1 (stereo not given)	-21%	5%
CCOC(=O)c1c(S(=O)(=O)N2CCCC2)c(C)n(C)c1C	?	20%
CC(=O)Nc1ccc(NC(=O)c2c(-c3ccccc3Cl)noc2C)cc1	0%	-6%
Cc1cccc(NC(=O)CN(C)S(=O)(=O)c2ccc(Cl)cc2)n1	-8%	12%
CN(C)c1cccc(C(=O)NC2CCCc3ccccc32)c1 (stereo not given)	?	15%
CSc1nc2cc(C)nn2c(-c2ccccc2)c1C#N	-2%	-3%
COc1ccc(-c2nn(-c3ccccc3)cc2C(N)=O)cc1OC	-4%	-17%
COCN(C#N)c1nc(OC)nc(OC)n1	-10%	-2%
COc1cc(C2C(C#N)=C(N)OC3=C2C(=O)CC(C)(C)C3)ccc1OCCN1CCOCC1 (stereo not given)	-1%	0%
O=C1CCCC2=C1C(c1ccsc1)CC(=O)N2c1ccccc1F (stereo not given)	0%	-10%
CC1(N(O)/C=C2\C=CC=CC2=O)CCCCC1=O (stereo not given)	-8%	16%
Cc1ccc(-c2nnc(Cc3ccc(Cl)cc3)o2)cc1	-18%	4%
CCC(C(=O)NC1CCCCC1)N(C(=O)c1snc(C(N)=O)c1N)c1ccc(OC)cc1OC (stereo not given)	-28%	-12%
CC1=C(C(N)=O)C(c2ccc(Cl)cc2)n2nc(CCCO)nc2N1 (stereo not given)	12%	-14%
COc1ccc(C(=O)CN(Cc2ccccc2)C2=NCCS2)cc1	-1%	-14%
COc1ccc(NC(=O)c2cnn(-c3ccccc3)c2C)c(OC)c1	0%	-4%
Cc1ccccc1-c1nnc(SCC(=O)N2CCCC2)o1	-6%	0%
CCOC(=O)c1c(CC(C)C)csc1/N=C/C1C(=O)CCCC1=O	6%	-17%

Copied from above (16 entries):
SMILES	DT40 TDP1 CPT	FEN1 inh
COc1ccc(N2CCN(C(=O)NC3CCCCC3)CC2)cc1	-24%	-1%
COc1cc(S(=O)(=O)n2nnc3ccccc32)c(OC)cc1Cl	-14%	-2%
O=C(CN1CCN(c2ccccn2)CC1)Nc1ccccc1	-9%	4%
CC(C)(C)c1[nH]nc2c1C(Cc1ccccc1)C(C#N)=C(N)O2 (stereo not given)	?	-3%
Cc1ccc(S(=O)(=O)NC2=NCN(CCN3CCOCC3)CN2)cc1	-5%	4%
CCCC1C2CN(C(C)C)CC=C2C(C#N)=C(N)C1(C#N)C#N (stereo not given)	?	0%
Cc1ccc(C(=O)OCC(=O)Nc2ncc(Cl)cc2Cl)cc1NC(=O)c1ccco1	-5%	2%
COc1ccc(C(=O)C2=NN(C(C)=O)CC2c2ccco2)cc1 (stereo not given)	-21%	5%
CCOC(=O)c1c(S(=O)(=O)N2CCCC2)c(C)n(C)c1C	?	20%
CC(=O)Nc1ccc(NC(=O)c2c(-c3ccccc3Cl)noc2C)cc1	0%	-6%
Cc1cccc(NC(=O)CN(C)S(=O)(=O)c2ccc(Cl)cc2)n1	-8%	12%
CN(C)c1cccc(C(=O)NC2CCCc3ccccc32)c1 (stereo not given)	?	15%
CSc1nc2cc(C)nn2c(-c2ccccc2)c1C#N	-2%	-3%
COc1ccc(-c2nn(-c3ccccc3)cc2C(N)=O)cc1OC	-4%	-17%
COCN(C#N)c1nc(OC)nc(OC)n1	-10%	-2%
COc1cc(C2C(C#N)=C(N)OC3=C2C(=O)CC(C)(C)C3)ccc1OCCN1CCOCC1 (stereo not given)	-1%	0%

Remaining list, next part:
SMILES	DT40 TDP1 CPT	FEN1 inh
Cc1noc(C)c1C(=O)N1CCC2(CC1)Oc1ccc(F)cc1C(=O)C21CC(c2ccc(Cl)cc2)=NO1 (stereo not given)	-12%	10%
COc1ccc(NC(=O)CN2CCN(S(=O)(=O)c3ccc(Cl)cc3)CC2)cc1Cl	-28%	-12%
COc1ccccc1NCCC(=O)O	1%	-12%
COc1cc2c(C(=O)N3CCN(c4ccccc4)CC3)c(C)oc2cc1Br	?	-16%
COc1ccc(OCc2cc(C(=O)NC3CCc4ccccc43)no2)c(Cl)c1 (stereo not given)	?	-3%
CC1CCCCN1S(=O)(=O)c1cccc(S(=O)(=O)N2CCOCC2)c1 (stereo not given)	-5%	-7%
CCCC(=O)Nc1c2c(nn1-c1ccc(F)cc1)CS(=O)(=O)C2	8%	17%
Cc1ccc(C(=O)N2CCc3ccccc32)cc1	-9%	-3%
Cc1ccc(S(=O)(=O)N2CCN(C(=O)Cn3nc(C(=O)O)c4ccccc4c3=O)CC2)cc1	2%	2%
COc1ccc([N+](=O)[O-])cc1NC(=O)CCNC(=O)Cn1ccc2ccccc2c1=O	-1%	16%
CCOC(=O)N1CCC(NC(=O)c2cc(-c3ccc(F)cc3)[nH]c2C)CC1	?	-3%
CCOC(=O)C1CCCN(C(=O)c2ccc(CNS(=O)(=O)c3ccc(C)cc3)cc2)C1 (stereo not given)	-22%	-3%
Cc1ccccc1NC(=S)N(C)Cc1cccs1	-6%	8%
O=C1/C(=C\c2cccnc2)SC(=S)N1c1ccc(F)cc1	-16%	-2%
COc1ccc(CNC(=O)CCCCCn2c(SCC#N)nc3cc4c(cc3c2=O)OCO4)cc1	-21%	-3%
COc1cccc(CN2CCC(C(=O)N3CCN(Cc4ccc5c(c4)OCO5)CC3)CC2)c1	?	-6%
CCOCCCNC(=O)CN1N=C(c2ccc(C)cc2)CCC1=O	-3%	19%
CCCCCn1c(=O)[nH]c2cc(C(=O)Nc3ccc(OC)cc3)ccc2c1=O	7%	4%
COc1ccc(-c2c(C)n([O-])c3c([n+]2=O)CCC3)cc1OC	8%	1%
COc1ccc(NC(=O)CN2C(=O)NC3(CCCC3)C2=O)c(OC)c1	18%	1%
COc1cc(CN2CCC(C(=O)N3CCN(c4ccccc4F)CC3)CC2)ccc1O	?	-1%
COc1cc(/C=N/NC2=NS(=O)(=O)c3ccccc32)ccc1OC(C)=O	?	1%
COC(=O)C(CC(C)C)NC(=O)c1ccc(F)cc1 (stereo not given)	-13%	-12%
C/C(=N\Nc1nccnc1Cl)c1ccc(O)cc1	-22%	1%
COc1ccc2cc(C(=O)NCCc3ccccc3)[nH]c2c1	2%	19%

Other entries:
SMILES	DT40 TDP1 CPT	FEN1 inh
Cc1ccccc1-n1nc(C)c2cc(C(=O)N3CCN(S(=O)(=O)c4ccccc4)CC3)sc21	1%	5%
O=C(CCCSc1nc2ccccc2[nH]1)NCc1ccccc1	-14%	1%
CCCCN1CCNC[C@H]1Cc1ccc(O)cc1	-19%	-5%
Cc1nc(SCC(=O)NC2CC2)c2c(C)c(C)sc2n1	?	-7%
O=C(c1ccc(C(F)(F)F)cc1)n1ccc(-c2cccs2)n1	1%	12%
CCOc1ccc(N(CC(=O)NC2CCCC2)S(=O)(=O)c2c(C)noc2C)cc1	-29%	-4%
Cc1nc2ccc(Cl)cc2c(-c2ccccc2)c1C(=O)N(C)C	-19%	20%
O=C(COc1coc(CN2CCc3ccccc3C2)cc1=O)Nc1ccc([N+](=O)[O-])cc1	?	0%
CCC(C)(C)n1nnnc1C(c1ccc(C)cc1)N1CCN(Cc2cccnc2)CC1 (stereo not given)	-17%	-5%
Cc1c(C(=O)N(C)CCC#N)oc2ccc(S(=O)(=O)N3CC(C)CC(C)C3)cc12 (stereo not given)	?	-13%
O=S(=O)(N/N=C\C=C\c1ccccc1)c1ccc(Cl)cc1	-26%	5%
CNC(=O)[C@H]1O[C@@H](n2cnc3c(NCc4cccc(I)c4)ncnc32)[C@H](O)[C@@H]1O	?	14%
O=C(O)C(Cc1ccccc1)N1C(=O)/C(=C/c2ccccc2)SC1=S (stereo not given)	-3%	-3%
COC(=O)COc1ccc(S(=O)(=O)N2CCCCC2)cc1[N+](=O)[O-]	12%	-8%
COc1ccc(OC)c2c(C)cc(NCCN3CCOCC3)nc12	-1%	4%
O=C(O)c1cc2c(s1)CCCC2	-2%	-2%
CCn1c(CNC(=O)COc2ccc(C(C)C)cc2)nnc1SCC(=O)NC1CCCCC1C (stereo not given)	?	-14%
C=CCn1c(SCC(=O)Nc2c(C)n(C)n(-c3ccccc3)c2=O)nc2sc(C)c(-c3ccccc3)c2c1=O	29µM*	-12%
CC(=O)n1cc(C2C(=O)CC(C)(C)CC2=O)c2ccccc21	-7%	-1%
O=C1CCC(C(=O)OCc2cc(=O)oc3ccc4ccccc4c23)=NN1	-10%	0%
Nc1nc2n(n1)C(c1ccccc1Cl)CC(c1ccc(F)cc1)N2 (stereo not given)	16µM*	13%
CCN(c1cccc(C)c1)S(=O)(=O)c1csc(C(N)=O)c1	-2%	-3%
COc1cccc(N2C(=O)Nc3ccccc3C2(O)C(=O)NCc2ccc3c(c2)OCO3)c1 (stereo not given)	-11%	0%
CN(C)c1nnnn1Cc1ccc(Cl)cc1Cl	?	14%
Cn1c(O)c(/C=C2\C=NN=C2c2ccccc2)sc1=S	-28%	18%

Next part:
SMILES	DT40 TDP1 CPT	FEN1 inh
COc1ccc(CN2CCCCC2C)cc1C (stereo not given)	11%	9%
Cc1[nH][nH]c(=O)c1N=Nc1ccccc1Cl	7%	-7%
COc1ccc(C(=O)NC(=S)NNC(=O)c2cnccn2)cc1	21µM*	-5%
COc1cc2ccccc2cc1C(=O)N1CCN(c2ccccn2)CC1	4%	-10%
Clc1nc(CN2CCCCC2)nc2sc3c(c12)CCCC3	?	-9%
COc1ccc(Cn2nnc3c(=O)[nH]c(C4CCCN(C(=O)c5ccccc5)C4)nc32)cc1 (stereo not given)	-29%	-3%
O=C1CNC(=O)c2c(nc3n2CCC3)N1	-1%	9%
CCN1C(C)=C(C)S/C1=C1\SC(=S)N(N)C1=O	6%	4%
CC1S/C(=N/N=C2CCC(C(C)(C)C)CC2)NC1=O (stereo not given)	?	3%

The list is partial, and most or all hits are left out here.
